Arbovirus anti: arbovirus infection inhibition; arbovirus infection cell-based antiviral screen; inhibition, % at 10 µM; actives 0.37% (n = 200,000); AID 1251;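 active = inhibition from about 30%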;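 also: bluetongue infection of BSR cells; cell survival read as ATP light after 72 h; 0% = infected wells without compound and 100% = uninfected wells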
RecA splice inh: inhibitors of M. tuberculosis RecA intein splicing | cell-free RecA intein splicing, fluorescence | AID 2221 | inhibition, %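 (about 9 µM by stock and volumes)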 | actives 0.75% (n = 290,000); in the data active = inhibition above about 30%; inconclusive = no clear call, values can overlap the other calls;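 also: 0% = vehicle wells and 100% = reference inhibitor control wells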
Target sequence (P9WHJ3 whole entry, looked up, canonical isoform): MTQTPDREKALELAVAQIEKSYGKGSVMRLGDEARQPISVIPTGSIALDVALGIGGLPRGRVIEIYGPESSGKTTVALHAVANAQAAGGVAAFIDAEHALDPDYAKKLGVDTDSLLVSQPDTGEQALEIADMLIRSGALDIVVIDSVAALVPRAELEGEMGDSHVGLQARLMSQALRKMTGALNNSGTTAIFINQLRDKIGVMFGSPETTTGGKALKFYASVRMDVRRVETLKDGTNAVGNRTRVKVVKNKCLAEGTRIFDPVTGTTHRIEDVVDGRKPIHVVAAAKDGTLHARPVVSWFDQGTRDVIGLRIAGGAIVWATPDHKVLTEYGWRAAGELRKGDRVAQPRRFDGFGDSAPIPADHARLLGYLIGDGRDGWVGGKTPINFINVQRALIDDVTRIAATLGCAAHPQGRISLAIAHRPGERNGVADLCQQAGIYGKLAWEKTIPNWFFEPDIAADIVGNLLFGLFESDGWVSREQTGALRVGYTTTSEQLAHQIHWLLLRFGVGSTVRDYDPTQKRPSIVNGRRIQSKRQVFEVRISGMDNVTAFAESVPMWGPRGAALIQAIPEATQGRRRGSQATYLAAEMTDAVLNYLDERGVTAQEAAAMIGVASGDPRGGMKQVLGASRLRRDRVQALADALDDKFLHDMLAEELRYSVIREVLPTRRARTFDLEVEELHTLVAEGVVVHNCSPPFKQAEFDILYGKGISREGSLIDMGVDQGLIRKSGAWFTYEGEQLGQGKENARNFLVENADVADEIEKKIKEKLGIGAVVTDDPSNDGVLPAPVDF
YopH inh: YopH (Yersinia) phosphatase inhibition | inhibition, %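 (about 10 µM by stock and volumes)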 | actives 0.16% (n = 140,000) | fluorescence Ex485/Em525;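 active = inhibition of 50% or more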;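 also: controls were vehicle for no effect and minimum signal wells for full effect; inactives centre near -20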
Mtb bLac sens: beta-lactam sensitization of Mtb H37Rv | inhibition, % at 25 µM | AID 434955 | actives 0.27% (n = 330,000) | M. tuberculosis H37Rv growth with meropenem, percent inhibition; hits of this screen are not shown here;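 active = about 74% or more and at least 40 points above the plate without the antibiotic, then above 30% in a dose series; inconclusive = first-round hits that could not be retested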;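 also: growth measured after seven days incubation then overnight dye step; 0% = bacteria only wells and 100% = bacteria with antibiotic; twin plates without the antibiotic show which effects depend on it; some results filed as inactive read as strong as hits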
Mtb growth: M. tuberculosis H37Rv growth inhibitors, H37Rv strain (AID 1626) | M. tuberculosis H37Rv growth inhibition; higher % means a stronger effect | one-dose inhibition, % at 10 µM; IC50 in µM for titrated hits | actives 0.95% (n = 220,000);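 active = confirmed in a dose series; inconclusive = inhibition above 80% but not taken into the dose series; inactive = below 80% or under 30% at every dose of the series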;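 also: bacteria incubated seven days before Alamar blue readout; 0% = bacteria only wells and 100% = bacteria with antibiotic wells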
Arbovirus anti repeat: second read-out of Arbovirus anti, no call of its own (marks repeat the call); inhibition, %; measured here: 10K subset replicate screen; many hits read low in the repeat;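 first of two repeat runs on a subset; 0% = infected and 100% = uninfected wells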
Numbers without * were called inactive; i = inactive; ? = inconclusive; . = not tested or not shown.

SMILES	Arbovirus anti	RecA splice inh	YopH inh	Mtb bLac sens	Mtb growth	others
CCC(=O)N1CC2(c3ccccc3)CN(C(=O)CC)CC(c3ccccc3)(C1)C2=O	-3	-0.4	.	-7	4%
CCNC(=S)N1CCCCC1CO (centres undefined)	-5	-1.1	.	0	-10%
O=C(/C=C/c1ccc([N+](=O)[O-])cc1)Nc1ncc([N+](=O)[O-])s1	-8	.	.	.	55%
COc1ccc(-c2cn3c(C)c(C(=O)N4CCCc5ccccc54)sc3n2)cc1	-8	-0.3	-34	2	25%	Arbovirus anti repeat=-8
CCCCn1c(-c2ccc(OC)cc2)nc2c(=O)n(C)c(=O)[nH]c21	.	-0.6	.	5	.
CC(C)NC(=O)Cn1cc(C(=O)c2ccccc2)c2ccccc21	.	-0.5	.	-12	.
COc1cccc(NC(=O)N2CCN(c3nc(-c4cccc(OC)c4)cs3)CC2)c1	.	10	.	91	80%
Cc1ccc2cc3c(N)[nH]nc3nc2c1	-6	-2.1	-12	-5	-3%
O=C(N/N=C/c1cccc(Cl)c1Cl)Nc1ccccc1	3	1.1	-16	-3	-3%
Nc1c(C(=O)NCc2ccco2)c2nc3ccccc3nc2n1CCN1CCCCC1	-31	i	9	6	16%
CCN1C(=O)C(CC(=O)Nc2ccc(Cl)cc2)N(NC(=O)c2ccncc2)C1=S (centres undefined)	.	.	.	-3	-11%
Cc1ccc(CNC(=O)C2CCN(S(=O)(=O)c3cnc[nH]3)CC2)cc1	1	2.0	-20	0	-1%
Cc1ccc(S(=O)(=O)N2CCCCC2)cc1NC(=O)CN1C(=O)CN(C)C1=O	-4	-1.0	.	4	-5%
CCOC(=O)C1(CC2CC2)CCN(Cc2cnc(-c3ccccc3C)nc2)CC1	13	0.5	.	2	6%
O=C(Nc1nnc(-c2ccco2)o1)C1CCCCC1	4	-3.4	-12	12	3%	Arbovirus anti repeat=-2
COc1cc(OC)cc(-c2cc3nc(C)c(CCC(=O)NC(C)CCc4ccco4)c(C)n3n2)c1 (centres undefined)	-14	1.7	4	?	3%
CCc1ccc(NC(=O)CN(c2ccccc2)S(=O)(=O)N(C)C)cc1	3	14	.	-8	2%
Cc1ccc2[nH]c(=O)c(CN(Cc3cccs3)Cc3nnnn3Cc3ccccc3)cc2c1	-26	3.1	-37	14	11%
Cc1sc(NC(=O)CS(=O)(=O)c2ccccc2)c(C#N)c1C	.	1.3	.	-1	.
CC(C)/C=C/CN1CCN(CCCc2ccccc2)C(CCO)C1 (centres undefined)	.	0.0	.	3	.
CCCOc1ccc(/C=N/NC(=O)CN2CCCCC2)cc1	.	4.2	.	-4	.
O=C(CCc1nc(-c2ccccc2)no1)NCc1ccco1	11	2.8	-32	-7	-14%
CCOc1ccc(-c2cc(C(=O)N3CCC(C)CC3)c3ccccc3n2)cc1	.	-0.4	.	43	.
COc1ccc(N(C(=O)COc2ccc(F)cc2)S(=O)(=O)c2ccc(C)cc2)cc1	6	1.5	-10	13	12%
Cc1cccc(CNC(=O)Cn2ccc3cc(S(=O)(=O)N4CCCCCC4)ccc32)c1	.	0.6	.	-12	.
Cc1oc2c(C)c3oc(=O)c(CCC(=O)N4C[C@H]5C[C@@H](C4)c4cccc(=O)n4C5)c(C)c3cc2c1C	.	0.2	.	-4	.
CCOCCCNC(=O)C1CCN(C(=O)Nc2ccc(Cl)cc2)CC1	-2	-1.2	2	-3	-10%
O=C(NCCN1CCc2ccccc2C1)C1CCN(S(=O)(=O)N2CCCCC2)CC1	1	0.0	-4	-2	-11%
NCCSC1CC(=O)N(c2ccc(F)cc2)C1=O (centres undefined)	.	-2.6	.	-12	.
O=C(NCCS(=O)(=O)N1CCCCCC1)c1ccccc1	.	-0.3	.	0	.

A portion from the list above:
SMILES	Arbovirus anti	RecA splice inh	YopH inh	Mtb bLac sens	Mtb growth	others
CCc1ccc(NC(=O)CN(c2ccccc2)S(=O)(=O)N(C)C)cc1	3	14	.	-8	2%
Cc1ccc2[nH]c(=O)c(CN(Cc3cccs3)Cc3nnnn3Cc3ccccc3)cc2c1	-26	3.1	-37	14	11%

(further entries)
SMILES	Arbovirus anti	RecA splice inh	YopH inh	Mtb bLac sens	Mtb growth	others
O=C(CN(C(=O)CNC(=O)c1ccco1)c1ccc2c(c1)OCCO2)NC1CCCCC1	-4	-0.4	.	2	-5%
O=C(NC1CCCCC1)NC1CCN(C(=S)NCc2ccco2)CC1	0	3.5	-30	-1	-16%
O=C(C1=NN[C@@H]2C(=O)N(c3ccccc3C(F)(F)F)C(=O)[C@H]12)c1ccc2ccccc2n1	0	-1.6	2	0	-6%
O=C(O)Cn1c(=S)sc2ccccc21	3	1.7	.	-4	-2%
COc1ccc(-c2cn[nH]c2-c2ccc(OC)cc2O)cc1	.	3.9	.	3	.
CCc1ccc(C(=O)NNC(=O)C2CSC3(C)CCC(=O)N23)cc1 (centres undefined)	.	2.1	.	5	.
CCOC(=O)N1CCC(NC(=O)CSCc2nc(-c3cccc(OC)c3)oc2C)CC1	11	0.3	-37	-1	-7%
Cc1cc(C)n(C(=O)CNc2ccc(C)c(C)c2)n1	3	0.3	-63	86	15%
CCCCC12CN3CCN(CC(C3)/C1=N\NC(=O)Nc1ccccc1)C2	8	2.3	-24	-3	7%
Cc1cc(C)c2c(CN3CCN(C)CC3)cc(=O)oc2c1	7	5.3	-33	1	1%
Cc1[nH]n(-c2ccccc2)c(=S)c1C=Nc1cccc([N+](=O)[O-])c1	1	4.6	-13	-7	0%
O=C(c1cccc([N+](=O)[O-])c1)N1CCN(c2cccc(Cl)c2)CC1	-14	3.3	-19	55	2%
Cn1c(=S)n(C)c2ccccc21	-1	2.4	.	4	-3%
C=C(C)C1CC=C(C)/C(=N/NC(=O)C2CC2c2ccccc2)C1 (centres undefined)	-10	-2.4	.	-2	-2%
O=c1cc(-c2ccccc2)nc2n1Cc1ccccc1-2	-1	0.0	-11	60	-3%
COc1ccccc1NC(=O)C(C)N(C)Cc1ccc(Cl)s1 (centres undefined)	.	21	.	33	.
COc1ccccc1NC(=O)c1c(Br)cnn1C	4	0.5	.	0	2%
C=CCc1cccc(/C=N/NC(=O)C(C)Nc2cccc(C)c2)c1O (centres undefined)	-24	-6.8	.	-6	-5%
COc1ccc2c(c1)c(=O)oc1cc(OC(C(=O)O)c3ccccc3)ccc12 (centres undefined)	.	-3.0	.	5	.
N#Cc1c(-n2cccc2C=O)sc2c1CCCC2	-5	-2.6	.	-1	4%
CCN(CC)C(=O)COc1ccc2c(c1)C(=O)CC(C)(C)O2	0	-16	.	1	-1%
Cc1ccc(CNS(=O)(=O)/C=C/c2ccc3c(c2)OCO3)cc1	6	0.9	-27	1	-5%
COc1cccc(/C=C/C(=O)c2ccc(NC3=NCCCS3)cc2)c1	-33	0.4	.	18	4%
COc1ccc(NC(=O)CN(C)CC(=O)Nc2ccc3c(c2)CCC3)cc1	3	2.4	.	11	21µM*
N/C(=N\OC(=O)Nc1ccc(Cl)cc1)c1ncc(C(F)(F)F)cc1Cl	-12	7.4	-14	-8	-11%
O=C(CCc1nnc(CCc2c[nH]c3ccccc23)o1)NC1CCC1	.	-0.5	.	-2	-2%
Cc1noc(N)c1C(=O)Nc1ccc(C(C)(C)C)cc1	-14	3.0	-14	2	-4%
O=C(CSc1ncnc2scc(-c3ccccc3)c12)NCc1ccc2c(c1)OCO2	-5	1.4	-28	1	4%
Cc1cc(C)cc(C(=O)NC(CC(N)=O)c2ccc(NC3CCCCCCCCCCC3)c([N+](=O)[O-])c2)c1 (centres undefined)	.	-4.2	.	21	.
Fc1ccccc1CNCCC(Cc1ccccc1)c1ccc2c(c1)OCO2 (centres undefined)	-38	4.5	-15	80	8%
CCOC(=O)C1CCN(C(=O)Cc2c(C(=O)O)[nH]c3ccccc23)CC1	3	0.4	-45	11	-5%	Arbovirus anti repeat=1
CCCc1c(C)nc(N2CCN(c3ccc(F)cc3)CC2)[nH]c1=O	.	-1.5	.	0	.
Oc1cccc(/C=N/N2CCN(C3c4ccccc4-c4ccccc43)CC2)c1	.	0.6	.	75	-1%
Nc1ccc(S(=O)(=O)Nc2nc(-c3ccccc3)cc(-c3ccccc3)n2)cc1	.	3.0	.	-1	10%
CCOc1ccc(S(=O)(=O)N(CC)CC(=O)N2CCCC2)cc1C	.	-24	.	3	.
COc1ccc(-c2nc(CS(=O)CC(=O)N3CCc4ccccc4C3)c(C)o2)cc1 (centres undefined)	3	3.0	6	-2	3%	Arbovirus anti repeat=3
CCOCCCNC(=O)c1cccc(OC2CCN(S(C)(=O)=O)CC2)c1	.	-0.8	.	-6	.
CCC(CO)Nc1ncc([N+](=O)[O-])cc1C#N (centres undefined)	1	-0.6	-36	1	2%
COc1ccc(-n2c(CCc3ccccc3)n[nH]c2=S)cc1	4	2.5	.	3	9%
O=C(CCNS(=O)(=O)c1ccc(Br)s1)NC1CCCC1	3	-0.7	-38	?	0%
COc1ccc(C)cc1NC(=O)CN(c1ccccc1)S(C)(=O)=O	1	-0.5	-34	-7	-23%	Arbovirus anti repeat=-1
Cc1ccc(CN2CCN(C(=O)C3CCCO3)CC2)cc1 (centres undefined)	2	1.6	-7	5	2%
OCCN(CCO)c1ccc(C(c2ccc(Cl)cc2)c2ccc(N(CCO)CCO)cc2Cl)c(Cl)c1	-36	27	-5	5	0%
CCOC(=O)[C@@H]1[C@H]2COc3ccc(Br)cc3[C@@H]2N2C(=O)N(c3ccc(C(F)(F)F)cc3)C(=O)[C@]12C	.	1.6	.	-3	.
CN(C)/C=N/c1nc2nccc(-c3cccnc3)n2n1	2	-9.8	.	-1	-8%
O=C(CN1C(=O)S/C(=C\c2ccccc2F)C1=O)Nc1ccccc1O	.	0.4	.	-5	.
Cc1ccc(O)c(O)c1	.	-2.6	.	-2	2%
CC1=C(C)CC(C(=O)NCc2ccc3c(c2)OCO3)C(C(=O)O)C1 (centres undefined)	-2	-1.1	-31	-3	-3%
CC(=O)C1=C(N2CCCCC2)CCC1=O	3	-0.7	-7	-6	3%	Arbovirus anti repeat=-1
COc1ccc(NC2CCCN(C(=O)CN3CCOC3=O)C2)cc1OC (centres undefined)	.	-2.8	.	-5	.
Cc1cccc(NC(=O)CCS(=O)(=O)c2ccc3c(c2)NC(=O)CS3)n1	.	4.2	.	-2	.
COc1cccc(-n2nnc3c(=O)n(CC(=O)NCC4CCCO4)cnc32)c1 (centres undefined)	-3	-1.7	-5	-6	5%	Arbovirus anti repeat=2
COc1ccccc1C(=O)C1CCCN(Cc2ccc(Oc3ncccn3)cc2)C1 (centres undefined)	-2	-0.3	.	0	-2%
CC(=O)Nc1ccc(S(=O)(=O)NCCCN2CCN(Cc3ccccc3)CC2)cc1Cl	.	7.3	.	1	-9%
CCOC(=O)C(Sc1nnc(-c2ccncc2)o1)C(C)=O (centres undefined)	0	0.3	-16	-13	-7%
O=C(Nc1ccc(Cl)cc1)C1C2CCCCC21 (centres undefined)	.	-4.6	.	5	.
O=C(c1ccc(S(=O)(=O)N2CCCCCC2)cc1)N1CCN(c2ccccc2F)CC1	.	-0.1	.	4	.

15 structures from above, arranged by length of the SMILES, rising.
SMILES	Arbovirus anti	RecA splice inh	YopH inh	Mtb bLac sens	Mtb growth	others
Cc1ccc(O)c(O)c1	.	-2.6	.	-2	2%
CC(=O)C1=C(N2CCCCC2)CCC1=O	3	-0.7	-7	-6	3%	Arbovirus anti repeat=-1
O=C(Nc1ccc(Cl)cc1)C1C2CCCCC21 (centres undefined)	.	-4.6	.	5	.
Cc1ccc(CN2CCN(C(=O)C3CCCO3)CC2)cc1 (centres undefined)	2	1.6	-7	5	2%
O=C(CCNS(=O)(=O)c1ccc(Br)s1)NC1CCCC1	3	-0.7	-38	?	0%
COc1ccc(NC2CCCN(C(=O)CN3CCOC3=O)C2)cc1OC (centres undefined)	.	-2.8	.	-5	.
COc1ccc(C)cc1NC(=O)CN(c1ccccc1)S(C)(=O)=O	1	-0.5	-34	-7	-23%	Arbovirus anti repeat=-1
O=C(CN1C(=O)S/C(=C\c2ccccc2F)C1=O)Nc1ccccc1O	.	0.4	.	-5	.
CC1=C(C)CC(C(=O)NCc2ccc3c(c2)OCO3)C(C(=O)O)C1 (centres undefined)	-2	-1.1	-31	-3	-3%
COc1cccc(-n2nnc3c(=O)n(CC(=O)NCC4CCCO4)cnc32)c1 (centres undefined)	-3	-1.7	-5	-6	5%	Arbovirus anti repeat=2
Cc1cccc(NC(=O)CCS(=O)(=O)c2ccc3c(c2)NC(=O)CS3)n1	.	4.2	.	-2	.
CC(=O)Nc1ccc(S(=O)(=O)NCCCN2CCN(Cc3ccccc3)CC2)cc1Cl	.	7.3	.	1	-9%
O=C(c1ccc(S(=O)(=O)N2CCCCCC2)cc1)N1CCN(c2ccccc2F)CC1	.	-0.1	.	4	.
OCCN(CCO)c1ccc(C(c2ccc(Cl)cc2)c2ccc(N(CCO)CCO)cc2Cl)c(Cl)c1	-36	27	-5	5	0%
CCOC(=O)[C@@H]1[C@H]2COc3ccc(Br)cc3[C@@H]2N2C(=O)N(c3ccc(C(F)(F)F)cc3)C(=O)[C@]12C	.	1.6	.	-3	.

This is a subset (hit frequency here may not be typical).
